# PMP22 txn prim: PMP22 gene transcription modulation; S16 Pmp22-F2sN Schwann cells (luciferase reporters placed in the Pmp22 gene), FLuc/NLuc coincidence luminescence, 24 h; Potency, µM (highest dose often 57.5 µM), without a hit: top-dose activity change, negative = inhibition, usual class: inhibitors; actives 2% (n = 43,000); active = clear falling dose curves in both reporters; inconclusive = both reporters move, but less clearly or upward; inactive = either reporter flat; the % is the NLuc reporter signal; also: % is scaled to controls: 0 for no effect and ±100 for the full control effect; some results filed as inactive show a strong effect at the top dose
#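 Transcriptional readout in edited S16(c9) cells: two luciferases reported from the Pmp22 locus, measured in turn after 24 h compound incubation.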
# HTT promoter inh: inhibits huntingtin promoter activity. HEK293 HTT promoter firefly luciferase reporter (activity 0% = vehicle and -100% = no light), 24 h. AID 1508623. Potency, µM (titrated, usually from 57.5 µM), inactives show top-dose activity change, negative = inhibition, actives largely listed as inhibitors. actives 0.93% (n = 48,000); active = well fitted inhibition curve with a large enough effect; inconclusive = small, poorly fitted or top-dose-only effect; inactive = no such curve, though single readings can be large or run the other way; also: nearly all actives have a fitted effect of over 50% in size
#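 Quantitative HTS used concentration series of up to 57.5 uM final on HEK293 luciferase reporter cells, 24 h at 37 degrees C. Readout was Dual-Glo firefly luminescence.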
# * hit, by the source's call; ? = inconclusive; . = no result given; & = joins results of further samples; [ ] = dose if it differs, or a comment. Potency is read from the fitted curve at half-maximal effect.
SMILES,PMP22 txn prim,HTT promoter inh
COc1ccccc1C(=O)Nc1c(C(=O)N(C)c2ccccc2)sc2nc(C)cc(C)c12,?,-6%
C=C(C)Cn1c(=O)c2c(nc3n2CCN3c2cc(C)cc(C)c2)n(C)c1=O,-1%,-2%
CCOc1ccc2nc(N3CCCC(C(=O)NCCc4ccc(SC)cc4)C3)sc2c1 (stereo not drawn),?,55%[activator]
CCc1ccc(C2CC(=O)c3c([nH]c(C(=O)OCc4ccc(C)cc4)c3C)C2)cc1 (stereo not drawn),10µM*,?
CCOC(=O)c1c(NC(=O)/C=C/c2ccc(C)cc2)sc2c1CCCC2,3%,-3%
COc1ccc(N2CCN(S(=O)(=O)CCNC(=O)C3CC(=O)N(c4ccccc4)C3)CC2)cc1 (stereo not drawn),3%,-9%
Cc1ccc(NC(=O)Cn2cc(C(=O)c3cccs3)c3ccccc32)cc1C,?,?
O=C(C1COc2ccccc2O1)N1CCN(c2nc3c(F)cccc3s2)CC1 (stereo not drawn),0%,16%
Cc1ccc(NC(=O)CSc2ccc(-c3ccccn3)nn2)cc1F,-47%,-22%
CCOCCCNC(=O)c1ccc2c(=O)n(CCc3ccc(OC)c(OC)c3)c(=O)[nH]c2c1,-5%,-22%
O=C(CN1C(=O)C2CCCCN2c2ccc(C(=O)N3CCCC3)cc21)NCc1cccc(Cl)c1 (stereo not drawn),-15%,-49%
CCC(=O)N1CCc2cc(S(=O)(=O)N(C)c3cccc(C)c3)ccc21,?,-15%
O=C(CCCn1c(=O)[nH]c2ccc(Br)cc2c1=O)N1CCN(c2cccc(Cl)c2)CC1,?,?
CC1CCN(S(=O)(=O)c2ccc3c(c2)CCN3C(=O)Nc2ccc(Br)cc2)CC1,?,12%
CC(C)c1ccc(NC(=O)Cn2cc(S(=O)(=O)Cc3cccc(Cl)c3)c3ccccc32)cc1,?,?
COc1cccc(-c2ccc3c(N)c(C(=O)Nc4ccc(C)c(F)c4)sc3n2)c1,-4%,-8%
O=C(NCCCN1CCCCC1)c1[nH]c2ccccc2c1Sc1ccc(Cl)cc1,?,-26%
Cc1ccc(CNC(=O)C2CCCN(c3nn4cc(-c5ccc(C)cc5)nc4s3)C2)cc1 (stereo not drawn),?,?
Cc1ccc(CNC(=O)CCCCn2c(=O)c3ccccc3n(Cc3ccc(Cl)cc3)c2=O)cc1,?,-5%
COc1ccc(NC(=O)Cn2cnc3sc(C)c(S(=O)(=O)N4CCN(C)CC4)c3c2=O)cc1OC,43%,-5%
CC(=O)Nc1ccc(Nc2nc3c(S(=O)(=O)c4cccc(Cl)c4)nnn3c3ccsc23)cc1,-57%,-14%
COc1ccc(S(=O)(=O)n2nc(C)c(S(=O)(=O)N3CCC(C)CC3)c2C)cc1OC,-1%,-5%
CCCc1nn2c(=O)cc(COC(=O)c3ccc(NC(=O)C(C)Oc4ccccc4)cc3)nc2s1 (stereo not drawn),12%,-15%
COc1ccc(CCNC(=O)Cc2c(C)c3c(cc(C)c4c(C)coc43)oc2=O)cc1,-17%,0%
COc1ccc2c(c1)CC(C(=O)NCCN1CCN(c3cccc(C)c3C)CC1)CO2 (stereo not drawn),?,?

# Not a retest: entries from further up.
SMILES,PMP22 txn prim,HTT promoter inh
CCCc1nn2c(=O)cc(COC(=O)c3ccc(NC(=O)C(C)Oc4ccccc4)cc3)nc2s1 (stereo not drawn),12%,-15%
COc1ccc(CCNC(=O)Cc2c(C)c3c(cc(C)c4c(C)coc43)oc2=O)cc1,-17%,0%
COc1ccc2c(c1)CC(C(=O)NCCN1CCN(c3cccc(C)c3C)CC1)CO2 (stereo not drawn),?,?

# More structures:
SMILES,PMP22 txn prim,HTT promoter inh
O=C(NCc1ccccc1Cl)c1cc(=O)[nH]c2ccc(S(=O)(=O)N3CCCCC3)cc12,6%,-3%
CC(C)Oc1ccc(C(=O)Nc2ccc3oc(-c4ccncc4)nc3c2)cc1,15%,-42%
O=C(CSc1nnc(-c2ccc([N+](=O)[O-])cc2)o1)Nc1ccccc1,-5%,67%[activator]
CCN(CC)CC(C)CNC(=O)CN1C(=O)CSc2ccc(S(=O)(=O)N3CCOCC3)cc21 (stereo not drawn),0%,-11%
COC(=O)c1c(SC)nc2ccccc2c1OCc1cccc(C)c1,?,-16%
COc1ccc(OCC(=O)Nc2c(C(=O)N3CCN(c4ccccc4)CC3)oc3ccccc23)cc1,-15%,-11%
CC(C)c1cnc2c(c1SCc1ccc([N+](=O)[O-])cc1)c(=O)n(C)c(=O)n2C,?,-1%
O=C(c1ccc2c(c1)N(Cc1ccccc1F)C(=O)c1ccccc1S2(=O)=O)N1CCOCC1,-5%,-14%
CCC(=O)Nc1cc(C)c(O)c(-c2nc3ncccc3o2)c1,-6%,-3%
COc1ccc(OC)c(NC(=O)c2cc3cc4ccc(C)cc4nc3s2)c1,6%,10%
COC(=O)Nc1nc2ccc(C(=O)c3cccs3)cc2[nH]1,.,-2%&-15%
COc1cccc(NS(=O)(=O)c2ccc3[nH]cc(C(=O)NC(C)c4ccccc4)c(=O)c3c2)c1 (stereo not drawn),-18%,?
C[C@@H]1O[C@@H](O[C@H]2CC[C@@]3(C)[C@H](CC[C@@H]4[C@H]3C[C@@H](O)[C@]3(C)[C@@H](C5=CC(=O)OC5)CC[C@]43O)C2)C[C@H](O)[C@@H]1O[C@H]1C[C@H](O)[C@H](O[C@H]2C[C@H](O)[C@@H](O)[C@@H](C)O2)[C@H](C)O1 (stereo in doubt),.,?
COc1ccc2cc3cc(C(=O)Nc4ccccc4C)oc3nc2c1,?,-18%
CCCN(C(=O)c1cc2c(=O)oc3ccccc3c2s1)c1cccc(Cl)c1,?,0%
Cc1cc(=O)c2c(O)c3c(O)cc(=O)c4c3c3c(cc(O)c1c23)C(C)(C)C=4O,.,-8%
O=C(NCc1ccccc1)C(=O)NCC(c1ccco1)S(=O)(=O)c1ccccc1 (stereo not drawn),-26%,-16%
CCOC(=O)c1cc(-c2ccc(OC)cc2)n(CCC(=O)Nc2cccc(C(C)=O)c2)c1C,-18%,-19%
COc1ccc(N2CCN(c3ncnc4c3cnn4-c3ccc(C)c(Cl)c3)CC2)cc1,-12%,-9%
CCOc1ccccc1NC(=O)CSc1nc2cc(OC)c(OC)cc2c2nc(-c3ccccc3)nn12,3%,21%
COC(=O)c1ccccc1NC(=O)C1CCCN(C(=O)c2cnn(-c3ccc(F)cc3)c2-n2cccc2)C1 (stereo not drawn),?,-19%
COC(=O)c1scc(-c2ccc(C)cc2)c1S(=O)(=O)Nc1cc(Cl)c(OC)cc1OC,-40%,-16%
Cc1ccc(CSc2nc3cccnc3n2Cc2ccc(C(=O)NC3CC3)cc2)cc1,-25%,10%
Cc1ccc(C)c(CNC(=O)c2ccc3c(c2)nc2n3CCOC2)c1,-7%,-2%
Cc1cccc(CNC(=O)c2ccc(Cn3c(SCc4cccc(F)c4)nc4cccnc43)cc2)c1,?,?

# Some of the entries above in a different format.
Structure | PMP22 txn prim | HTT promoter inh
CC(C)Oc1ccc(C(=O)Nc2ccc3oc(-c4ccncc4)nc3c2)cc1 | 15% | -42%
O=C(CSc1nnc(-c2ccc([N+](=O)[O-])cc2)o1)Nc1ccccc1 | -5% | 67%[activator]
CCN(CC)CC(C)CNC(=O)CN1C(=O)CSc2ccc(S(=O)(=O)N3CCOCC3)cc21 (stereo not drawn) | 0% | -11%
COC(=O)c1c(SC)nc2ccccc2c1OCc1cccc(C)c1 | ? | -16%
COc1ccc(OCC(=O)Nc2c(C(=O)N3CCN(c4ccccc4)CC3)oc3ccccc23)cc1 | -15% | -11%
CC(C)c1cnc2c(c1SCc1ccc([N+](=O)[O-])cc1)c(=O)n(C)c(=O)n2C | ? | -1%
O=C(c1ccc2c(c1)N(Cc1ccccc1F)C(=O)c1ccccc1S2(=O)=O)N1CCOCC1 | -5% | -14%
CCC(=O)Nc1cc(C)c(O)c(-c2nc3ncccc3o2)c1 | -6% | -3%
COc1ccc(OC)c(NC(=O)c2cc3cc4ccc(C)cc4nc3s2)c1 | 6% | 10%
COC(=O)Nc1nc2ccc(C(=O)c3cccs3)cc2[nH]1 | . | -2%&-15%
COc1cccc(NS(=O)(=O)c2ccc3[nH]cc(C(=O)NC(C)c4ccccc4)c(=O)c3c2)c1 (stereo not drawn) | -18% | ?
C[C@@H]1O[C@@H](O[C@H]2CC[C@@]3(C)[C@H](CC[C@@H]4[C@H]3C[C@@H](O)[C@]3(C)[C@@H](C5=CC(=O)OC5)CC[C@]43O)C2)C[C@H](O)[C@@H]1O[C@H]1C[C@H](O)[C@H](O[C@H]2C[C@H](O)[C@@H](O)[C@@H](C)O2)[C@H](C)O1 (stereo in doubt) | . | ?
COc1ccc2cc3cc(C(=O)Nc4ccccc4C)oc3nc2c1 | ? | -18%
CCCN(C(=O)c1cc2c(=O)oc3ccccc3c2s1)c1cccc(Cl)c1 | ? | 0%
Cc1cc(=O)c2c(O)c3c(O)cc(=O)c4c3c3c(cc(O)c1c23)C(C)(C)C=4O | . | -8%
O=C(NCc1ccccc1)C(=O)NCC(c1ccco1)S(=O)(=O)c1ccccc1 (stereo not drawn) | -26% | -16%
CCOC(=O)c1cc(-c2ccc(OC)cc2)n(CCC(=O)Nc2cccc(C(C)=O)c2)c1C | -18% | -19%
COc1ccc(N2CCN(c3ncnc4c3cnn4-c3ccc(C)c(Cl)c3)CC2)cc1 | -12% | -9%
CCOc1ccccc1NC(=O)CSc1nc2cc(OC)c(OC)cc2c2nc(-c3ccccc3)nn12 | 3% | 21%
COC(=O)c1ccccc1NC(=O)C1CCCN(C(=O)c2cnn(-c3ccc(F)cc3)c2-n2cccc2)C1 (stereo not drawn) | ? | -19%
COC(=O)c1scc(-c2ccc(C)cc2)c1S(=O)(=O)Nc1cc(Cl)c(OC)cc1OC | -40% | -16%
Cc1ccc(CSc2nc3cccnc3n2Cc2ccc(C(=O)NC3CC3)cc2)cc1 | -25% | 10%

# Following part
SMILES,PMP22 txn prim,HTT promoter inh
CCCCN(CC)C(=O)Cn1nc(C)c2c(C)n(-c3ccccc3)nc2c1=O,-7%,-14%
COc1ccc(S(=O)(=O)N(CC(=O)Nc2cccc(C)c2)c2ccc(C)cc2)cc1OC,-25%,-29%
Cc1ccc(C2CC(=O)n3nc(-c4ccc(Cl)cc4)nc3S2)cc1 (stereo not drawn),-2%,8%
CCOC(=O)c1ccc(NC(=O)C2=C(C)C(=O)OC23CCCCCC3)cc1,-9%,-14%
O=C(NCCc1csc(-c2ccc(Cl)cc2)n1)c1cccs1,?,?
CCC(C)(C)c1ccc(CC(C)CN2C[C@@H](C)O[C@@H](C)C2)cc1 (stereo partly drawn),.,-5%&-12%
Cc1ccc(Nc2c(-c3ccc(N4CCOCC4)cc3)nc3ccc(Cl)cn23)cc1,-43%,8%
COc1ccc(CCNC(=O)Cn2c(=O)cc(C(F)(F)F)c3c(C)nn(C)c32)c(OC)c1,-8%,-2%
COc1ccc(CC2SC(=O)NC2=O)cc1C(=O)NCc1ccc(C(F)(F)F)cc1 (stereo not drawn),.,-18%
Cc1ccc(C)c(N2CCN(C(=O)C3CCN(Cc4nc(-c5cccc(Cl)c5)oc4C)CC3)CC2)c1,?,?
Cc1nc2cnc3ccc(C#Cc4cccnc4)cc3c2n1-c1ccc(C(C)(C)C#N)cc1,.,?
COCCn1c(CNC(=O)c2ccc(C)cc2)nc2cccnc21,-32%,4%
COC(=O)c1ccc(NS(=O)(=O)c2ccc3[nH]c4c(c3c2)CCCCC4)cc1,?,?
CCC(C)Nc1ncnc2c1cnn2-c1ccc(F)cc1 (stereo not drawn),-15%,39%[activator]
CCOc1ccc(NC(=O)C2CCCN(c3nnc(C)c4c(C)n(-c5ccccc5)nc34)C2)cc1 (stereo not drawn),-15%,-21%
COc1ccc(Br)cc1CNCc1c(C(=O)O)c(C)n(Cc2ccccc2C)c1C,-10%,?
COc1ccc(C)c2sc(N(Cc3cccnc3)C(=O)C3CCCCC3)nc12,-1%,-28%
CCCOc1ccc(C2C(=O)N(C3CCCCC3)CC(=O)N2CCc2ccccc2)cc1OC (stereo not drawn),?,9%
O=C(CCOc1ccccc1)N(Cc1cccnc1)c1nc2c(F)cc(F)cc2s1,?,-25%
Cc1ccc(-n2ncc3c(NC4CCCC4)ncnc32)cc1,1%,?
CC(NC(=O)c1cc(-c2ccc(Cl)cc2)on1)c1ccccc1 (stereo not drawn),?,2%
COc1ccc(Cl)cc1Nc1ncnc2c1nc1n2CCCC1,-15%,5%
CCOc1ccc(S(=O)(=O)N(CC(=O)NCCSCc2ccccc2)c2ccccc2)cc1,?,-15%
CCOc1ccc(/C=C/c2nc(C#N)c(NCc3ccc(OC)cc3)o2)cc1,?,-15%
CCOC(=O)c1scc(-c2ccc(C)cc2)c1S(=O)(=O)Nc1cc(Cl)ccc1OC,-41%,?
COc1cccc(C(=O)Nc2cc(-c3ccccc3)nn2-c2ccccc2)c1,-5%,-20%
Cc1nc(N2CCOCC2)c2c(C(=O)Nc3cccc(C(F)(F)F)c3)c(C)oc2n1,-23%,-3%
CC(NC(=O)CCn1c(=O)c2cccn2c2ccc(F)cc21)c1ccccc1 (stereo not drawn),-17%,-2%
CN[C@@H](C)C(=O)N[C@H]1CCCC[C@H]2CC[C@@H](C(=O)N[C@@H](c3ccccc3)c3cn(CCCCc4ccc(CCCCn5cc([C@@H](NC(=O)[C@@H]6CC[C@@H]7CCCC[C@H](NC(=O)[C@H](C)NC)C(=O)N76)c6ccccc6)nn5)cc4)nn3)N2C1=O,.,8%
NC(=O)C1(N2CCCCC2)CCN(C(=O)Nc2ccc(Cl)c(Cl)c2)CC1,-20%,-12%
